Screens (PubChem)
GLA inh pH 4.5: inhibitors of human alpha-galactosidase A at pH 4.5. P06280. purified enzyme, 4-MU-alpha-Gal fluorescence, pH 4.5. activity change, negative = inhibition, % at 105 µM. 230,000 tested, under 10 active. AID 1467; inconclusive = small, poorly fitted or top-dose-only inhibition, or a rising curve; inactive = flat fitted curve, though single readings scatter; no compound was filed as active;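 note: 0% = full activity with enzyme and -100% = basal without enzyme; dose as in the result columns while the protocol names 77 µM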
Rango complex inh: Rango-importin beta binding inhibition; Rango CFP/YFP FRET sensor + importin beta, 45 min; Potency, µM (doses to about 92.2 µM), for the others: top-dose inhibition of complex formation; 340,000 tested, 0.031% active; AID 540263; active = rising FRET ratio curve, often small or poorly fitted; inconclusive = mostly compound fluorescence or quenching in the first reads; inactive = flat curves in all reads;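 note: potency is the fitted concentration of half-maximal effect; 0% = DMSO wells and 100% = buffer wells lacking importin beta; nearly all actives have a fitted effect of over 15% in size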
Target sequence (Q14974 whole entry, looked up): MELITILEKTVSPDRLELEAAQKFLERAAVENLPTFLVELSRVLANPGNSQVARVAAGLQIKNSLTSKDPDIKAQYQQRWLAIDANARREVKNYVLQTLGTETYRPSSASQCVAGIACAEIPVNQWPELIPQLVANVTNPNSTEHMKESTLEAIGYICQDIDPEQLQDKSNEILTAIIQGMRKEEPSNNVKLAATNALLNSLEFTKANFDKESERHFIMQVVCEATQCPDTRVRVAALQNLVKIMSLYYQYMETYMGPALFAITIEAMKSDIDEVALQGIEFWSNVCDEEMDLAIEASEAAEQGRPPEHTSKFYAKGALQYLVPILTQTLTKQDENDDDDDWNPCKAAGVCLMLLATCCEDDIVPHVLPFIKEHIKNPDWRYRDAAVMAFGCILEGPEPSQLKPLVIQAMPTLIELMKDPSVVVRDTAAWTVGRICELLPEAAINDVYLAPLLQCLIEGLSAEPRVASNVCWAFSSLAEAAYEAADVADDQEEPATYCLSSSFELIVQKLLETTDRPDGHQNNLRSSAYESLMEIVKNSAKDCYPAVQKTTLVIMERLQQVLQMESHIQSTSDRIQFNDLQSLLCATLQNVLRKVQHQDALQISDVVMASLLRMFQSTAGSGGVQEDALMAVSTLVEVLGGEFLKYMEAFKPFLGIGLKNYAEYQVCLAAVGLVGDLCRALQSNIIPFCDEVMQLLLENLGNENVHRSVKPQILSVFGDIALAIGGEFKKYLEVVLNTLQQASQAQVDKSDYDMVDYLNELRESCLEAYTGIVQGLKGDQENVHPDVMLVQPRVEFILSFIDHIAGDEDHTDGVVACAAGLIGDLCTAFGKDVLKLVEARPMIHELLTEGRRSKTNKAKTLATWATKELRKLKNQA
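FRET biosensor Rango (snurportin 1 IBB between N-terminal EYFP and C-terminal Cerulean), 50 nM in PBS/1 mM DTT/0.02% Tween-20/0.1% BSA, preincubated 5 min RT with compound; 0.125 microM importin beta added, 45 min RT, CFP/YFP FRET ratio read.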
miR-21 reporter: miR-21 reporter, rising signal. 340,000 tested, under 10 active. AID 2288. Potency, µM (series often up to 38.3 µM), for inactives: at the top dose reporter change, positive = more light. HeLa miR-21 FLuc reporter, luciferase, 48 h; active = well fitted rising curve with a large enough effect; inconclusive = small, poorly fitted or top-dose-only effect; inactive = no such curve, though single readings can be large or run the other way;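 note: % of control where 0% means no effect; miR-21 action dims this reporter so a rising signal means less miR-21 action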
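Luminescence from a firefly luciferase reporter carrying a miR-21 binding site downstream, stably expressed under a CMV promoter in HeLa cells that make miR-21 endogenously, reports miRNA modulation after 48 h compound exposure up to approximately 40uM final.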
Rango release inh: prevents RanGTP from dissociating the Rango-importin beta complex; O95149+P62826; Biochemical FRET Rango-importin beta, RanGTP-induced dissociation; Potency, µM (series often up to 46.1 µM), without a hit: top-dose activity change, negative = inhibition; 340,000 tested, 0.071% active; AID 540253; active means falling FRET ratio curve, often poorly fitted, with flat reads before Ran was added; inconclusive means other falling curves, or compound fluorescence or quenching; inactive means flat or rising ratio curve;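 note: potency is the fitted concentration of half-maximal effect; % of control where 0% means no effect; nearly all actives have a fitted effect of over 45% in size; -100% = wells without RanGTP and RCC1; the record marks most hits as doubtful in a second field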
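Two FRET readings bracket the reaction: one 5 min after compound meets Rango–importin beta, another 45 min after RanGTP-RCC1 (0.6 uM Ran, 0.2 uM RCC1, 2 mM GTP) is added. Only the second defines inhibition.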
* hit, by the source's call; ? = inconclusive; · = no result given. Not all compounds are listed. The share of hits here may be higher or lower than overall.

Rango complex inh,miR-21 reporter,GLA inh pH 4.5,Rango release inh,molecule
?,-7%,3,-9%,O=C(Nc1ccc2c(c1)OCO2)C1CCCN1C(=O)NCc1ccccc1 (configuration not stated)
9.9%,1%,·,0%,CCCCn1c(N)c(N(Cc2ccccc2OC)C(=O)c2c(CC)noc2C)c(=O)[nH]c1=O
-0.7%,-52%,-13,1%,O=C(N/N=C/c1ccc2cccnc2c1)c1nc2ccccc2c(=O)[nH]1
3.5%,0%,-14,-1%,COc1ccc(CCn2c3c(c(=O)[nH]c2=O)C(NC(=O)c2cccs2)(C(F)(F)F)C(=O)N3)cc1OC (configuration not stated)
0.2%,-3%,1,-2%,COc1cccc(NC(=O)CSc2nnc(-c3ccoc3C)n2CC2CCCO2)c1 (configuration not stated)
0.2%,0%,3,-5%,O=C1CC(NCc2ccccc2F)C(=O)N1c1ccccc1 (configuration not stated)
0.5%,-1%,4,-21%,CC(Oc1ccccc1)C(=O)Nc1ccccc1O (configuration not stated)
-0.5%,-29%,-15,21%,OC1CCCN(C(=S)Nc2ccc(SC(F)F)cc2)C1 (configuration not stated)
-2.3%,1%,-5,-11%,Cc1c(Cl)c(-c2n[nH]c(=S)n2Cc2ccco2)nn1C
0.2%,-6%,2,?,CSc1scc2c1-c1nc(SCC(=O)C(C)(C)C)ncc1CC2

(further entries)
Rango complex inh,miR-21 reporter,GLA inh pH 4.5,Rango release inh,molecule
?,·,·,1%,C=CCn1c(=O)[nH]c(=O)c2c(N)c(C(=O)c3ccc(OC)cc3)sc21
-1.6%,-7%,-4,-1%,O=C(CSc1ncn(-c2ccccc2)n1)Nc1ccc2c(c1)OCO2
-1.9%,-15%,?,?,Cc1nc2nc(-c3ccccc3)cn2nc1C
7.7%,?,·,2%,CCC(C)Nc1nc(-c2ccccn2)nc2ccccc12 (configuration not stated)
3.5%,-5%,·,-10%,CC(C)N(CCNC(=O)COc1ccc2oc3c(c2c1)CCCC3)C(C)C
0.5%,-13%,·,-4%,COc1ccccc1C(=O)N/N=C(\C)CC(=O)Nc1ccc2c(c1)OCCO2
?,10%,-9,-17%,CCOC(=O)c1sc2nccc(N(C)C)c2c1N=CNOC
0.9%,-1%,6,14%,COCCCN1C(=O)c2ccc(C(=O)Nc3ccccc3OC)cc2C1=O
7.1%,-53%,-2,3%,Cc1ccc(NC(=O)CCCc2ccccc2)nc1
-1.0%,-1%,·,-2%,CCN(CC(=O)NCc1ccc(F)cc1)C(=O)c1ccc(C)o1

Later entries:
Rango complex inh,miR-21 reporter,GLA inh pH 4.5,Rango release inh,molecule
0.0%,-68%,·,0%,Clc1c(-c2ccccc2)nc2ccccn12
5.1%,-4%,-1,7%,CN1C(=O)/C(=C/c2cc(N=Nc3ccccc3)ccc2O)SC1=S
-1.3%,·,·,4%,CCNc1nc(NCC)n2c(SCC(=O)Nc3cccc(F)c3)nnc2n1
1.1%,0%,1,-6%,COC(=O)[C@H](CCSC)NC(=O)Nc1cccc(Br)c1
2.7%,-61%,·,8%,C/C(=N\NC(=O)c1ccoc1C)c1cccc2ccccc12
-0.2%,·,·,9%,O=C(NCC(=O)N1CCN(C(=O)c2ccccc2)CC1)c1ccc(Cl)cc1Cl
-2.6%,-4%,-12,-4%,O=c1cc(/C=C/c2ccccc2)oc2c1ccc1ccccc12
-1.2%,-16%,·,9%,O=C(Cc1cccc2ccccc12)NCCc1ccccc1
-3.6%,·,·,-13%,O=C(NCC1CCCO1)c1ccc2[nH]c3c(c2c1)CCCC3 (configuration not stated)
-1.8%,3%,2,-14%,C=C1CCC(C)C(C)(CCC2=CCOC2=O)C/C=C\C=C/1C(=O)O (configuration not stated)

Additional structures follow:
Rango complex inh,miR-21 reporter,GLA inh pH 4.5,Rango release inh,molecule
0.2%,-1%,-4,1%,N#CC1=C(N)OC2=C(C(=O)CCC2)[C@]12C(=O)N(CC(N)=O)c1ccccc12
-3.7%,1%,-4,-14%,CC1(C)C(=O)NCCN1C(=O)CC1C(=O)NCCN1CC(c1ccccc1)c1ccccc1 (configuration not stated)
0.1%,-10%,·,-6%,CCCN(CC1CCCO1)C(=O)c1cc(COc2cccc(OC)c2)on1 (configuration not stated)
-0.5%,-58%,-2,5%,CN(C)/C=C/C(=O)c1ccc(-n2cccc2)cc1
0.2%,-21%,-17,4%,CCOC(=O)N1CCN(C(=O)CSCc2ccc(C)cc2)CC1
1.1%,-6%,1,11%,NC(=O)C1CCCN(C(=O)Nc2cccc3ccccc23)C1 (configuration not stated)
0.5%,-15%,-5,6%,CSc1nc(-c2ccccc2)nn1S(=O)(=O)c1ccccc1
0.7%,-16%,1,-6%,O=C(CCSc1nc2cc(Cl)ccc2o1)N1CCOCC1
0.2%,-56%,-3,-4%,Cc1ccc2c(c1)C(=NC1CCCCC1)c1cc3ccccc3nc1-2
-0.6%,-1%,10,-14%,Nc1nc(-c2ccc(Cl)cc2)c(N=Nc2ccc(S(=O)(=O)N3CCOCC3)cc2)s1

(continued)
Rango complex inh,miR-21 reporter,GLA inh pH 4.5,Rango release inh,molecule
-1.7%,3%,·,21%,O=C1OC(N2C(=O)CC[C@H]2C(=O)Nc2ccc(Br)cc2F)c2ccccc21 (some centres not stated)
1.4%,0%,0,-7%,Cc1nc(C)c(C(=O)NNS(=O)(=O)c2ccc3ccccc3c2)s1
·,-4%,-10,·,S=c1[nH]nc(-c2ccco2)n1/N=C/c1ccccn1
0.0%,-4%,·,3%,O=c1[nH]c(C2CCN(S(=O)(=O)Cc3ccccc3)CC2)nc2c1nnn2Cc1ccccc1Cl
?,-21%,1,?,COC(=O)CSc1nc(N2CCOCC2)c2c(c1C#N)CC(C)(C)N(C)C2
1.2%,20%,-2,1%,COc1cc(S(=O)(=O)N2CCN=C2c2ccccc2)ccc1F
0.0%,·,·,3%,COc1cc(C(=O)OCCNC(=O)c2cccnc2)cc(OC)c1OC
1.3%,10%,-5,22%,CC1CCCC(C)N1C(=O)c1ccccc1Nc1ccc(SC(F)F)cc1 (configuration not stated)
-0.8%,·,·,1%,COc1ccc(NS(=O)(=O)c2ccc(C(=O)N3CCCCCC3)cc2)cc1
2.4%,0%,·,9%,C/C(=N/NS(=O)(=O)c1cc(C)ccc1C)c1ccncc1

Already shown: entries from further up.
Rango complex inh,miR-21 reporter,GLA inh pH 4.5,Rango release inh,molecule
?,-21%,1,?,COC(=O)CSc1nc(N2CCOCC2)c2c(c1C#N)CC(C)(C)N(C)C2
1.2%,20%,-2,1%,COc1cc(S(=O)(=O)N2CCN=C2c2ccccc2)ccc1F
0.0%,·,·,3%,COc1cc(C(=O)OCCNC(=O)c2cccnc2)cc(OC)c1OC
1.3%,10%,-5,22%,CC1CCCC(C)N1C(=O)c1ccccc1Nc1ccc(SC(F)F)cc1 (configuration not stated)
-0.8%,·,·,1%,COc1ccc(NS(=O)(=O)c2ccc(C(=O)N3CCCCCC3)cc2)cc1
2.4%,0%,·,9%,C/C(=N/NS(=O)(=O)c1cc(C)ccc1C)c1ccncc1

The results go on.
Rango complex inh,miR-21 reporter,GLA inh pH 4.5,Rango release inh,molecule
3.9%,-8%,4,-8%,CCC(C)N=CC1=C(O)CC(c2ccccc2)CC1=O (configuration not stated)
0.0%,·,·,4%,CCN(CC(=O)Nc1c(F)cccc1F)C(=O)c1ccc(C)c(S(=O)(=O)N2CCCCC2)c1
5.3%,·,·,1%,S=C1NCCN1CC1CCN(CCC23CC4CC(CC(C4)C2)C3)CC1
-0.9%,3%,·,-9%,CC(C)c1ccc(S(=O)(=O)NC2CCCC2)cc1
-1.8%,3%,1,-10%,O=C(CS(=O)(=O)c1ccccc1)Nc1ccc(S(=O)(=O)Nc2ncccn2)cc1
0.8%,1%,-1,2%,CC(NC(=O)Cc1cccs1)c1ccncc1 (configuration not stated)
-6.2%,2%,2,-2%,O=C(Cn1c(=O)n(Cc2ccco2)c(=O)c2c3c(sc21)CCCC3)Nc1ccccc1
?,0%,-7,-7%,COc1ccc(N=C2SC(C(=O)N3CCN(c4ccc([N+](=O)[O-])cc4)CC3)CC(=O)N2C)cc1 (configuration not stated)
-1.8%,-3%,-2,-16%,COc1cc(C)c(NC(c2ccccc2)c2ccccc2)cc1OC
0.0%,-4%,·,0%,COc1ccc(N(C(=O)c2ccco2)C(C(=O)NC2CCCC2)c2ccncc2)cc1OC (configuration not stated)

(next part)
Rango complex inh,miR-21 reporter,GLA inh pH 4.5,Rango release inh,molecule
0.5%,-35%,1,1%,O=C(/C=C/c1ccc([N+](=O)[O-])cc1)N1CCN(c2ccccc2F)CC1
2.8%,2%,-10,-4%,COC(=O)c1ccccc1NC(=O)C1CC(=O)N(c2ccc(C)cc2)C1 (configuration not stated)
?,-41%,-18,?,N#C/C(=C\c1ccc(N2CCOCC2)cc1)c1ccccc1
2.7%,20%,-4,7%,COc1ccc(CN(C(C)=O)c2cccc(C)c2C)cc1
-3.2%,0%,·,27%,CCOC(=O)[C@@H]1[C@H]2COc3ccc(Br)cc3[C@H]2N2C(=O)N(c3ccc(Cl)cc3)C(=O)[C@@]12C
2.0%,-37%,-9,17%,COCCCNC(=S)NCCc1ccc(F)cc1
1.6%,-2%,1,-9%,CCn1cc(Br)c(C(=O)Nc2ccccc2C(=O)OC)n1
-2.7%,-8%,·,-1%,CC(=O)NC(C)Cc1cn(Cc2ccccc2)c2ccccc12 (configuration not stated)
1.5%,4%,2,-11%,C/C(=N\S(=O)(=O)c1ccc(C)cc1)N1CCCCC1
2.5%,·,·,15%,O=C(COC(=O)c1ccc([N+](=O)[O-])o1)Nc1ccc2c(c1)OCO2

Next section
Rango complex inh,miR-21 reporter,GLA inh pH 4.5,Rango release inh,molecule
8.0%,0%,0,-6%,O=C(CSc1nc2ccccc2o1)N1c2ccccc2Sc2ccc(Cl)cc21
?,-6%,-12,-7%,O=C1c2ccccc2C(=O)N1/N=C/c1ccc(O)c(O)c1O
-0.1%,25%,-4,9%,CCOC(=O)Nc1nc(-c2ccccc2)c(C(=O)c2ccccc2)s1
-3.1%,-3%,-30,-6%,CN(C(=O)N1CCN(S(=O)(=O)c2ccccc2)CC1)c1ccccc1
-1.8%,-12%,·,15%,C=CCn1c(Oc2ccc(C=O)cc2OCC)nc2c1c(=O)n(C)c(=O)n2C
1.8%,0%,·,7%,Cc1cc(C(=O)N/N=C\c2cc(C(C)(C)C)c(O)c(C(C)(C)C)c2)n[nH]1
-0.8%,15%,·,-2%,Cc1cccc(C)c1OCC(=O)Nc1ccncc1
1.8%,-1%,·,?,Oc1c(Cl)cc(Cl)cc1CNc1nc2ccccc2[nH]1
2.7%,-8%,-4,-15%,O=C(O)C1C2C=CC(C2)C1C(=O)N1CCN(CCO)CC1 (configuration not stated)
4.0%,·,·,2%,CN(C(=O)c1cccc(NC(=O)Cc2cccc(NC(=O)C3CCN(C(=O)c4ccccc4)CC3)c2)c1)C1CCCC1

Next part
Rango complex inh,miR-21 reporter,GLA inh pH 4.5,Rango release inh,molecule
-2.1%,-4%,-4,1%,Cc1nc2[nH]c(=S)[nH]c2cc1Br
2.6%,-1%,-4,0%,Cc1ccc2c(c1)NC(=O)C(CC(=O)NCCCN1CCCCC1)O2 (configuration not stated)
4.7%,-30%,2,23%,CN(C)c1ccc(-c2nnn(Cc3ccccc3Br)n2)cc1
-0.7%,-32%,?,14%,CC1CCN(c2oc(-c3cccc4ccccc34)nc2C#N)CC1
2.6%,·,·,15%,CCN(CC)C(=O)c1nc[nH]c1C(=O)N(CC)CC
9.1%,·,·,13%,Cc1csc(SCC(=O)NC2CCS(=O)(=O)C2)n1 (configuration not stated)
-0.3%,-6%,-28,-9%,O=C(Nn1c(O)c(C=C2N=c3ccccc3=N2)sc1=S)c1ccccc1
4.6%,·,·,1%,O=C1NC2(CCCCC2)OC12CCCCC2
?,0%,-1,0%,Cc1cccc(N2CCN(C(=O)c3cccc(N4C(=O)C5CC=CC(C)C5C4=O)c3)CC2)c1C (configuration not stated)
-1.4%,4%,·,-1%,NC(=O)CC(NC(=O)Cc1cccc2ccccc12)c1ccc(N2CCN(c3ccccn3)CC2)c([N+](=O)[O-])c1 (configuration not stated)
0.8%,3%,·,-14%,CC(C)C(=O)Nc1c(-c2ccccc2F)c(=O)c2ccccc2n1C
-0.1%,·,-17,11%,COc1ccc(-c2c(C)cc3oc(=O)cc(-c4ccccc4)c3c2C)cc1C=O
